High-throughput results deposited in PubChem by Broad Institute.
DUX4 txn inh: blocks DUX4-driven transcriptional activation. AID 1224904. 293T-iDUX4 ZSCAN4-Gaussia luciferase reporter, 24 h; active compounds read low. 0.8% of 37,000 active. activity change, negative = inhibition, % (test concentration not listed);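 active = -10% or lower and over 25 points stronger than a control reporter; inconclusive = -10% or lower with a smaller gap; inactive = above -10%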;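 also: 0% = median of neutral control wells and -100% = median of positive control wells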
DUX4 txn inh difference: recorded beside DUX4 txn inh, whose call it bears; Gaussia minus Italica difference, %; measured here: selective DUX4 reporter inhibition;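 worked out from the two reporters; negative = selective loss of the DUX4 reporter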
DUX4 txn inh control: recorded beside DUX4 txn inh, whose call it bears; activity change, negative = inhibition, %; measured here: Italica tet-on control reporter;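 0 = neutral control and -100 = positive control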
Numbers without * were called inactive; ? = inconclusive; / = no result given; & = joins results of further samples. The list is partial; count on the stated rates, not on these rows.

DUX4 txn inh,DUX4 txn inh difference,DUX4 txn inh control,canonical_smiles
1,-1,2.0,COc1ccccc1CNC(=O)C[C@@H]1C[C@@H]2c3cc(NC(=O)Cc4ccncc4)ccc3O[C@@H]2[C@@H](CO)O1
3,1,1.5,CO[C@@H]1CN(C)C(=O)c2cc(NS(C)(=O)=O)ccc2OC[C@H](C)N(Cc2cocn2)C[C@H]1C
2,2,0.6,O=C(C[C@@H]1CC[C@H]2[C@@H](COC[C@@H](O)CN2Cc2ccncc2)O1)NCc1ccccc1Cl
2,0,1.6,COc1ccc(NC(=O)Nc2ccc3c(c2)C(=O)N([C@H](C)CO)C[C@@H](C)[C@@H](CN(C)C(=O)NC2CCCCC2)OCCCC[C@H](C)O3)cc1
-1,-8,6.1,CC(=O)Nc1ccc2c(c1)C(=O)N(C)[C@@H]1CC[C@@H](CC(=O)NCCCN3CCOCC3)O[C@H]1CO2
?,/,/,O=C(C[C@H]1CC[C@H]2[C@@H](COC[C@@H](O)CN2Cc2ccc(Oc3ccccc3)cc2)O1)N1CCN(c2ccccc2)CC1
-10,-10,0.4,CO[C@H]1CN(C)C(=O)c2ccc(NC(=O)C3CCC3)cc2OC[C@@H](C)N(Cc2ccccn2)C[C@@H]1C
-1,0,-1.9,CCS(=O)(=O)N1[C@H](CO)[C@@H](c2ccccc2)C12CN(C(=O)c1ccccc1F)C2
13,12,0.4,Cc1noc(C)c1NC(=O)N[C@H]1C=C[C@@H](CC(=O)N2CCCCC2)O[C@H]1CO
15,-9,25,CCCC#Cc1ccc([C@@H]2[C@@H](CO)N3CCCCN(Cc4cncnc4)C[C@H]23)cc1
-2,-5,3.6,COCC#Cc1cnc2c(c1)C(=O)N([C@H](C)CO)C[C@H](C)[C@@H](CN(C)Cc1ccc(-c3ccccc3)cc1)O2
-1,-1,-0.5,CCCN(C)C[C@H]1Oc2cc(C#CC3CCCCC3)ccc2S(=O)(=O)N([C@H](C)CO)C[C@@H]1C
1,2,-0.7,CO[C@@H]1CN(C)C(=O)c2cc(NC(=O)NC3CCCCC3)ccc2OC[C@H](C)N(CC2CCOCC2)C[C@@H]1C
?,/,/,O=C(C[C@@H]1CC[C@@H]2[C@H](COC[C@H](O)CN2C(=O)c2ccccc2)O1)Nc1ccc(-c2ccccc2)cc1
3,0,2.8,CO[C@H]1CN(C)C(=O)c2ccc(NS(=O)(=O)c3cccc(F)c3)cc2OC[C@@H](C)NC[C@H]1C
-1,-3,2.1,CO[C@@H]1CC[C@@H]2CCOc3c(C#N)cccc3C(=O)N(C)C[C@@H](OC)[C@@H](C)C(=O)N(C)C[C@@H]1O2
-4,-4,-0.1,CCC(=O)N1[C@@H](CO)[C@@H]2c3ccccc3N(C(=O)c3ccncc3)C[C@@H]21
-9,12,-21,O=C(c1ccccn1)N1CC2(C1)[C@H](c1ccccc1)[C@H](CO)N2Cc1ccc(Cl)cc1
4,5,-0.4,O=C(c1ccncc1)N1C[C@H]2[C@@H](c3ccccc31)[C@H](CO)N2Cc1ccccc1F
0,-1,0.8,COc1ccccc1-c1ccc([C@@H]2[C@@H](C#N)N(C(=O)NC3CCCCC3)[C@@H]2CO)cc1
5,1,3.3,O=C(C[C@@H]1C=C[C@H](NC(=O)Cc2cccnc2)[C@H](CO)O1)NCc1ccc2c(c1)OCO2
-1,-2,0.8,C/C=C/c1ccc([C@@H]2[C@@H](CO)N[C@@H]2CN(CC)C(=O)CN2CCOCC2)cc1
5,0,4.9,CO[C@@H]1CN(C)C(=O)c2ccc(NS(=O)(=O)c3cccc(F)c3)cc2OC[C@H](C)NC[C@@H]1C
3,3,-0.6,COc1ccc(S(=O)(=O)N(C)C[C@H]2Oc3ccc(NC(=O)Nc4ccc(C(F)(F)F)cc4)cc3C(=O)N([C@@H](C)CO)C[C@H]2C)cc1
-2,1,-3.3,Cc1noc(C)c1NC(=O)N(C)C[C@@H]1Oc2ccc(NC(=O)Cc3cn(C)c4ccccc34)cc2CC(=O)N([C@@H](C)CO)C[C@H]1C
-1,1,-1.6,CO[C@H]1CN(C)C(=O)c2cc(NC(=O)NC3CCCCC3)ccc2OC[C@@H](C)N(CC2CCOCC2)C[C@@H]1C
-2,-5,2.7,CCCNC(=O)Nc1ccc2c(c1)C(=O)N(C)[C@H]1CC[C@@H](CC(=O)NCCCN(C)C)O[C@@H]1CO2
12,9,3.6,CCS(=O)(=O)N1CC2(CN(CC3CCOCC3)[C@@H](CO)c3c2c2ccc(OC)cc2n3C)C1
-3,-2,-1.3,C[C@@H]1CN([C@H](C)CO)S(=O)(=O)c2ccc(C3=CCCCC3)cc2O[C@H]1CN(C)Cc1ccccc1F
9,9,-0.1,CN(C)CC(=O)N1CC2(C1)[C@H](c1ccccc1)[C@H](CO)N2C(=O)C1CC1

More compounds:
DUX4 txn inh,DUX4 txn inh difference,DUX4 txn inh control,canonical_smiles
0,-4,3.8,O=C1CCCc2cnnn2COCCN1
12,9,3.5,CC(=O)N1CC[C@@H]2[C@H](CO)Nc3ccc(-c4cccc(F)c4)cc3[C@@H]21
3,0,2.8,CO[C@H]1CN(C)C(=O)c2cc(NS(C)(=O)=O)ccc2OC[C@H](C)N(CCC(F)(F)F)C[C@@H]1C
1,5,-3.5,Cc1cccc(S(=O)(=O)N[C@@H]2CC[C@@H](CCn3cc(-c4ccccn4)nn3)O[C@H]2CO)c1
-2,-5,2.3,CC(C)c1cn(CC[C@@H]2CC[C@H](NS(=O)(=O)c3ccc(F)cc3)[C@H](CO)O2)nn1
?,/,/,O=C(C[C@@H]1CC[C@H](NC(=O)Nc2cc(F)ccc2F)[C@@H](CO)O1)Nc1ccc(-c2ccccc2)cc1
21,11,10,O=C(C[C@@H]1CC[C@@H]2[C@H](COC[C@H](O)CN2S(=O)(=O)c2ccccc2)O1)NCc1ccc2c(c1)OCO2
6,-1,6.3,O=C(CC1CC1)N1CC(=O)N2[C@H](CO)[C@H](c3ccc(C#Cc4ccccc4)cc3)[C@@H]2C1
?,/,/,COc1ccc(S(=O)(=O)N2CCCCN3[C@H](C2)[C@@H](c2ccc(C#CC(C)C)cc2)[C@@H]3CO)cc1
-1,-5,3.4,O=C(NC[C@H]1[C@H](c2ccccc2)[C@H](CO)N1C(=O)Cc1cccnc1)C1CCC1
-2,2,-3.4,Cc1ccc(S(=O)(=O)N(C)C[C@H]2Oc3cc(C#CC4CCCC4)ccc3S(=O)(=O)N([C@H](C)CO)C[C@H]2C)cc1
4,4,-0.1,CN1C[C@@H](O)COC[C@@H]2O[C@@H](CC(=O)N3CCN(c4ccccc4)CC3)CC[C@H]21
-2,-2,0.4,C/C=C/c1cnc2c(c1)C(=O)N([C@H](C)CO)C[C@@H](C)[C@@H](CN(C)S(=O)(=O)c1cn(C)cn1)O2
1,2,-0.8,CC(C)C#Cc1ccc([C@@H]2[C@@H](CO)N3C(=O)CN(S(=O)(=O)c4ccccc4)C[C@H]23)cc1
5,-5,9.6,COc1cccc(NC(=O)N2C[C@@H](O)COC[C@H]3O[C@@H](CC(=O)N(C)C)CC[C@@H]32)c1
-9,-5,-3.4,COc1cccc(NC(=O)Nc2ccc3c(c2)C(=O)N(C)[C@H]2CC[C@@H](CC(=O)NCCc4ccccc4)O[C@H]2CO3)c1
0,2,-1.9,C[C@@H]1CN([C@H](C)CO)C(=O)c2ccccc2-c2ccccc2CO[C@@H]1CN(C)C(=O)N[C@H](C)c1ccccc1
1,-5,6.0,CC(C)NC(=O)N[C@H]1C=C[C@H](CC(=O)NCc2ccc(Oc3ccccc3)cc2)O[C@@H]1CO
-1,-5,3.4,COc1ccccc1-c1ccc2c(c1)O[C@@H](CN(C)C(=O)Nc1cccc(F)c1)[C@H](C)CN([C@@H](C)CO)S2(=O)=O
-7,5,-12,C[C@@H]1CN([C@H](C)CO)C(=O)c2c(c3ccccc3n2C)-c2ccccc2CO[C@H]1CN(C)S(=O)(=O)c1ccc(C#N)cc1
2,6,-3.9,COc1ccc(NC(=O)N(C)C[C@H]2Oc3ccc(N(C)C)cc3C(=O)N([C@@H](C)CO)C[C@@H]2C)cc1
-8,-3,-4.8,C[C@H](CO)N1C[C@H](C)[C@@H](CN(C)C(=O)Nc2ccc(N3CCCCC3)cc2)OCc2cn(nn2)CCCC1=O
4,1,2.7,COCC(=O)Nc1ccc2c(c1)[C@H]1C[C@@H](CC(=O)N(C)C)O[C@H](CO)[C@H]1O2
2,0,1.9,C[C@H](CO)N1C[C@H](C)[C@@H](CN(C)Cc2ccc(Cl)c(Cl)c2)Oc2ccc(NC(=O)C3CCCCC3)cc2CC1=O
2,3,-2.0,C[C@@H]1CCCCO[C@H](CN(C)Cc2ccc(C(=O)O)cc2)[C@@H](C)CN([C@H](C)CO)C(=O)c2cc(NC(=O)NC3CCCCC3)ccc2O1
4,1,2.9,C[C@H](CO)N1C[C@H](C)[C@@H](CN(C)Cc2cccc(C(=O)O)c2)Oc2cc(C3=CCCC3)ccc2S1(=O)=O
-6,1,-6.6,Cc1ccccc1S(=O)(=O)N[C@H]1CC[C@@H](CCn2cc(-c3ccc(F)cc3)nn2)O[C@@H]1CO
-3,-6,3.7,COCC(=O)Nc1ccc2c(c1)[C@@H]1C[C@H](CC(=O)N3CCOCC3)O[C@@H](CO)[C@@H]1O2
-4,-4,0.0,Cc1ccc(S(=O)(=O)N(C)C[C@H]2Oc3c(NS(C)(=O)=O)cccc3C(=O)N([C@H](C)CO)C[C@H]2C)cc1
3,4,-0.9,CC(C)NC(=O)N1[C@@H](CO)[C@@H]2c3ccccc3N(C(=O)Nc3ccc(F)cc3)C[C@@H]21

Carrying on.
DUX4 txn inh,DUX4 txn inh difference,DUX4 txn inh control,canonical_smiles
6,-4,11,CCCNC(=O)C[C@@H]1C[C@@H]2c3cc(NC(=O)C4CCOCC4)ccc3O[C@@H]2[C@H](CO)O1
3,-1,3.5,O=C(C[C@H]1CC[C@@H]2[C@H](COC[C@@H](O)CN2S(=O)(=O)c2ccccc2F)O1)NCc1ccccc1F
9,8,1.3,C/C=C/c1ccc([C@@H]2[C@@H](CO)N3C(=O)CN(C(=O)c4ccncc4)C[C@H]23)cc1
-2,-6,3.5,CO[C@@H]1CC[C@@H]2CCN(C)C(=O)[C@H](C)N(C)C(=O)c3cccc(C#N)c3OC[C@H]1O2
1,1,-0.3,COc1ccc(NC(=O)Nc2ccc3c(c2)C(=O)N([C@@H](C)CO)C[C@H](C)[C@@H](CN(C)Cc2ccncc2)OCCCC[C@H](C)O3)cc1
2,-2,4.5,O=S(=O)(c1ccccc1)N1CC[C@@H]2[C@H]1c1cc(C#Cc3ccccc3F)ccc1N[C@@H]2CO
4,4,-0.2,COCC(=O)Nc1ccc2c(c1)[C@@H]1C[C@H](CC(=O)NCc3ccccc3F)O[C@@H](CO)[C@@H]1O2
2&19,11&22,-8.8&-2.6,Cc1ccccc1-c1ccc(C2[C@H]3CNC[C@@H]2N3S(=O)(=O)c2cccc(F)c2)cc1 (some centres not stated)
3,2,1.4,CN(C)C(=O)c1ccc(-c2ccc([C@@H]3[C@@H](CO)N(C(=O)Cc4ccccn4)[C@H]3C#N)cc2)cc1
10,-10,21,COc1cccc(C#Cc2ccc3c(c2)[C@H]2[C@H](CCN2C(=O)CC2CC2)[C@H](CO)N3)c1
3,0,2.6,O=C(NCC[C@H]1CC[C@@H](NC(=O)c2ccc3c(c2)OCO3)[C@H](CO)O1)Nc1cc(F)ccc1F
?,/,/,COc1ccc2c3c([nH]c2c1)[C@H](CO)N(Cc1cccc(Cl)c1)CC31CN(C(C)=O)C1
-2,-4,1.9,CCCNC(=O)N1C[C@H](C)[C@@H](OC)CN(C)C(=O)c2ccc(NC(=O)C3CCC3)cc2OC[C@H]1C
-4,1,-5.1,COCC#Cc1ccc2c(c1)O[C@H](CN(C)Cc1ccccc1F)[C@@H](C)CN([C@@H](C)CO)S2(=O)=O
12,3,8.1,O=C(C[C@@H]1CC[C@@H]2[C@H](COC[C@H](O)CN2C(=O)Cc2ccccc2)O1)NC1CCCC1
1,2,-0.3,O=C(Nc1cccc(F)c1)N1CC(=O)N2[C@H](CO)[C@@H](c3ccc(Br)cc3)[C@@H]2C1
8,11,-3.6,COc1ccc(-c2ccccc2[C@@H]2[C@H](C#N)N(C(=O)C3CCC3)[C@H]2CO)cc1
1,-1,2.1,CNC[C@@H]1Oc2ncc(C#CCC3CCCC3)cc2C(=O)N([C@H](C)CO)C[C@@H]1C

No new results follow: entries from further up.
DUX4 txn inh,DUX4 txn inh difference,DUX4 txn inh control,canonical_smiles
1,-1,2.0,COc1ccccc1CNC(=O)C[C@@H]1C[C@@H]2c3cc(NC(=O)Cc4ccncc4)ccc3O[C@@H]2[C@@H](CO)O1
3,1,1.5,CO[C@@H]1CN(C)C(=O)c2cc(NS(C)(=O)=O)ccc2OC[C@H](C)N(Cc2cocn2)C[C@H]1C
2,2,0.6,O=C(C[C@@H]1CC[C@H]2[C@@H](COC[C@@H](O)CN2Cc2ccncc2)O1)NCc1ccccc1Cl
2,0,1.6,COc1ccc(NC(=O)Nc2ccc3c(c2)C(=O)N([C@H](C)CO)C[C@@H](C)[C@@H](CN(C)C(=O)NC2CCCCC2)OCCCC[C@H](C)O3)cc1
-1,-8,6.1,CC(=O)Nc1ccc2c(c1)C(=O)N(C)[C@@H]1CC[C@@H](CC(=O)NCCCN3CCOCC3)O[C@H]1CO2
?,/,/,O=C(C[C@H]1CC[C@H]2[C@@H](COC[C@@H](O)CN2Cc2ccc(Oc3ccccc3)cc2)O1)N1CCN(c2ccccc2)CC1
-10,-10,0.4,CO[C@H]1CN(C)C(=O)c2ccc(NC(=O)C3CCC3)cc2OC[C@@H](C)N(Cc2ccccn2)C[C@@H]1C
-1,0,-1.9,CCS(=O)(=O)N1[C@H](CO)[C@@H](c2ccccc2)C12CN(C(=O)c1ccccc1F)C2
13,12,0.4,Cc1noc(C)c1NC(=O)N[C@H]1C=C[C@@H](CC(=O)N2CCCCC2)O[C@H]1CO
15,-9,25,CCCC#Cc1ccc([C@@H]2[C@@H](CO)N3CCCCN(Cc4cncnc4)C[C@H]23)cc1
